# Compound activity (PubChem)
# T cruzi inh: T. cruzi replication inhibition; T. cruzi beta-gal in NIH3T3, luminescence, 90 h; inhibition, % (test concentration not listed); 300,000 compounds, 1.4% hits; AID 1885;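 active = mean inhibition across valid replicates above about 55%, limit read from the data; inconclusive = mean below that limit but half or more replicates reach it; inactive = mean below it, under half of replicates reach it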;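 also: signal also drops with host cell toxicity which is not excluded here; 0% = plate median of DMSO wells and 100% = zero luminescence signal; higher percent means less beta-gal luminescence so fewer parasites; stock transfer was 50 nL into about 50 µL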
# RanGTP-Imp inh: disruptors of Ran-importin-beta complex formation – biochemical, FRET, CFP-Ran, YFP-importin-beta, homogeneous, primary screen; cell-free CFP-Ran/YFP-importin-beta FRET ratio; 300,000 compounds, 1.1% hits; inhibition, % (test concentration not listed);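 active = most replicates above 15%; inconclusive = exactly half above 15%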;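 also: 0% = DMSO wells and 100% = Ran loaded with GDP instead of GTP; wells of about 40 µL received 100 nL stock; the first replicate is given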
# Calb FLC: affects C. albicans growth with fluconazole; C. albicans CaCi-2 (fluconazole-resistant clinical isolate) + fluconazole, Alamar Blue growth, 48 h; growth inhibition, % (no concentration beside the values); 300,000 compounds, 0.57% hits; AID 1979;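 active = most replicates above 75%; inconclusive = exactly half above 75%; inactive = most below 75%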;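 also: all wells also contain fluconazole at 8 µg/ml as a sub-toxic cotreatment; 0% = median of DMSO wells and 100% = median of geldanamycin control wells; wells of about 8 µL received 7.5 nL stock; the first replicate is given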
# FGF22 binding: shifts melting point of recombinant human FGF22; Q9HCT0; recombinant FGF22 thermal shift, SYPRO orange fluorescence; percent of sucrose octasulfate shift, DMSO zero; calls only at 9.99 µM; 340,000 compounds, 1.5% hits;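 active = melting point raised past a set limit in the mean and every replicate; inconclusive = no clear call; three in four hits are not shown here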
# Target sequence (Q9HCT0 whole entry, looked up): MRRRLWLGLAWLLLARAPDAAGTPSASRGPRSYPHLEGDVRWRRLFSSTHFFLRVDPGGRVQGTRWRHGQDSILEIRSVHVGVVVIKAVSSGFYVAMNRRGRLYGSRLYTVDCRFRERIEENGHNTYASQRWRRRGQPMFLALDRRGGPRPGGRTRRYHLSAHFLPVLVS
# ALR H2O2 inh: inhibitors of human sulfhydryl oxidase ALR; AID 485317; P55789; inhibition, % (no concentration beside the values); 290,000 compounds, 3.8% hits; purified ALR, DTT oxidation, H2O2 HRP-luminol luminescence;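 active = mean and each replicate at 75% or more; inconclusive = only one of the two met; inactive = neither met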;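 also: stock transfer was 7.5 nL into about 7.5 µL; 0% = neutral wells and 100% = wells with inactivated enzyme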
# Target sequence (P55789 whole entry, looked up): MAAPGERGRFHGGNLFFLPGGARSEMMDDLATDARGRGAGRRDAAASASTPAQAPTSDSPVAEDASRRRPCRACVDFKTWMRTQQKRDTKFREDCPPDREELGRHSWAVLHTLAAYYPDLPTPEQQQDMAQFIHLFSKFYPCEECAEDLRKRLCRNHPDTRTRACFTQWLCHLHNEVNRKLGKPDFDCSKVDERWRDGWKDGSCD
# AF4-AF9 inh: blocks AF4 peptide binding to human AF9. P42568. AlphaScreen, biotin-AF4 peptide binding to FLAG-AF9. inhibition, % at 10 µM. 350,000 compounds, 0.47% hits. AID 651704;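 active = every replicate reaching a set inhibition limit, whatever the replicate mean, cut at about 25% in these data; inconclusive = mean inhibition reaches that limit but some replicates miss it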;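 also: 0% = plate neutral control median and 100% = total signal loss; the record names both 10 and 1 µM as test concentration; the first replicate is given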
# Target sequence (P42568 whole entry, looked up): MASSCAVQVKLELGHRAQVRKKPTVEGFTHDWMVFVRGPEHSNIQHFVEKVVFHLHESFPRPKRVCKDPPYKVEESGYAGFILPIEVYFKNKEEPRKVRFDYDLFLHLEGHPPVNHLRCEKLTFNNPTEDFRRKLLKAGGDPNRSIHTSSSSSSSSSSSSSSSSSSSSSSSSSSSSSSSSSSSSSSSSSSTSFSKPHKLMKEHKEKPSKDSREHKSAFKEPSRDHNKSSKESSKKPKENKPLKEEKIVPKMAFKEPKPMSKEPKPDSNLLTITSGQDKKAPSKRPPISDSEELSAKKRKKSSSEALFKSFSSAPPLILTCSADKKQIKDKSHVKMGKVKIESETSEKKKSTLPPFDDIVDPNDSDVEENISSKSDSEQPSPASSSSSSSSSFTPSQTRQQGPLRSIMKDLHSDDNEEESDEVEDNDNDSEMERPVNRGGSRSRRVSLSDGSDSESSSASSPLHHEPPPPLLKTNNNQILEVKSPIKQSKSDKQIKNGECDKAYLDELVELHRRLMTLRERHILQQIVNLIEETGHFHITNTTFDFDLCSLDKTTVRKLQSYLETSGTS
# rRNA inh HTS: selective bacterial rRNA inhibition in E. coli. 350,000 compounds, 1.6% hits. GFP signal change (wild-type ribosome), % (concentration not given with the values). E. coli WT GFP vs humanized-ribosome RFP mutants, fluorescence, 24 h; active compounds read low; DMSO median 0, no signal -100;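 active = significant combined selectivity score with lowered wild-type GFP, culture density cut under 30%, mutant RFP and density less affected; inactive = any of these conditions unmet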; also: one replicate is shown; some compounds called inactive have numbers as strong as hits
# Beta cell apopt: beta cell apoptosis inhibition | INS-1E cytokine-induced death, ATP luminescence, 48 h; percent of positive-control rescue, neutral wells zero | protection from apoptosis, % (no concentration beside the values) | 300,000 compounds, 0.8% hits | AID 435005;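 active = all replicates at 75% or more, or half of them and the mean; inconclusive = half reach 75% but not the mean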;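 also: 0% = cytokine-treated negative control wells and 100% = positive control rescue; higher means more ATP so stronger rescue from cytokine killing; wells of about 40 µL received 100 nL stock; the first replicate is given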
# rRNA inh HTS OD600: further read-out of rRNA inh HTS, marked with its call; OD600 change, %; measured here: OD600 growth;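 optical density of the mix in the first replicate; 0 = DMSO median and -100 = no signal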
# rRNA inh HTS RFP: second read-out of rRNA inh HTS, no call of its own (marks repeat the call); RFP signal change, %; measured here: RFP humanized mutant strains;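 first replicate; 0 = DMSO median and -100 = no signal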
# The depositor's hits bear a star; i = inactive; ? = inconclusive; nt = not tested or not shown; + = active, no number. A portion of the library; count on the stated rates, not on these rows.
structure,T cruzi inh,RanGTP-Imp inh,Calb FLC,FGF22 binding,ALR H2O2 inh,AF4-AF9 inh,rRNA inh HTS,rRNA inh HTS OD600,rRNA inh HTS RFP,Beta cell apopt
COc1cccc(-c2nnc(-c3ccc(C(F)(F)F)cc3)o2)c1OC,12,3.3,18,nt,2,nt,nt,nt,nt,-2
CCc1nnc(NC(=O)CSc2nc3ccccc3o2)s1,10,2.4,-2,nt,-8,nt,nt,nt,nt,-4
Cc1ccccc1CN1CCN(CC(=O)NCc2ccc3c(c2)OCO3)C1=O,-4,?,-46,nt,2,nt,nt,nt,nt,-1
Cn1ncc(Cl)c1C(=O)NC1CCCC1,5,nt,nt,i,-4,-1.4,16,15,1.9,-7
CN1C(=O)N(C)C(c2cccc([N+](=O)[O-])c2)C2=C1CCCC2=O (stereo not given),6,-2.7,-8,i,-2,0.3,7,16,-2.0,-1
CSCC[C@H](NC(=O)[C@@H]1Cc2c([nH]c3ccccc23)C2c3ccccc3C(=O)N21)C(=O)NCC1CCCO1 (stereo not given in full),0,0.2,-3,i,-3,2.4,-1,-5,16,-9
CCCCC[n+]1cccc2c3ccccc3ccc21,73*,1.3,-16,i,-12,-3.0,-22,-25,-3.9,110*
COc1ccccc1NC(=O)C/C(C)=N/NC(=O)C12CC3CC(CC(C3)C1)C2,1,?,15,i,-2,-1.0,11,-12,-0.2,nt
O=C(NCc1ccccc1Cl)c1nnc(CS(=O)(=O)c2ccccc2)o1,3,3.1,-4,i,0,-16,4,-5,-4.9,-2
c1cc(-c2nnc3n2CCC3)[nH]n1,-14,2.8,3,nt,-8,nt,nt,nt,nt,nt
O=[N+]([O-])c1ccc(N/N=C\c2cccnc2)nc1,-23,6.3,16,i,1,-0.4,nt,nt,nt,-1
Cc1ccnc(NS(=O)(=O)c2ccc(NC(=O)COc3ccccc3)cc2)n1,-16,6.2,14,i,nt,-2.2,2,9,-1.1,-2
Cc1ccc(S(=O)(=O)N2CCCCC2)cc1C(=O)c1nccn1C,7,4.3,-14,nt,-2,nt,nt,nt,nt,-5
Cc1ccccc1C(=O)N/N=C1/SCC(=O)N1Cc1ccccc1,-5,?,-27,i,-3,-0.3,4,7,1.6,-4
Cc1ccc(CNC(=O)Cc2ccc(-n3c(=O)[nH]c4ccsc4c3=O)cc2)cc1,-6,3.3,1,nt,-6,nt,nt,nt,nt,26
Cc1cccc2sc(NC(=O)CN(C)S(=O)(=O)c3cccs3)nc12,10,-1.3,-1,nt,nt,nt,nt,nt,nt,-2
COc1ccc(S(=O)(=O)Nc2ccc(Cc3ccncc3)cc2)cc1C,-12,0.1,2,nt,-6,nt,nt,nt,nt,12
Nc1cc(=O)[nH]c(N2CCN(c3ccccc3)CC2)n1,-21,1.3,19,i,17,-0.2,8,9,1.4,2
Cn1c(=O)c2c(O)c(Cc3ccccc3)c(=O)n(C)c2n(C)c1=O,5,0.7,-4,i,22,-1.0,-4,1,0.8,1
CCOC(=O)N1CCN(C(=O)c2ccc(N(Cc3ccc(Cl)cc3)S(C)(=O)=O)cc2)CC1,8,8.6,?,nt,-5,0.1,-8,-12,0.1,3
S=C1NCCNC(=S)NCCOCCOCCN1,-15,1.1,12,i,0,0.8,5,-3,1.5,nt
O=C(COC(=O)c1ccco1)NC1CCCc2ccccc21 (stereo not given),nt,nt,nt,i,-9,-1.4,8,-1,1.8,0
COc1cc(=O)[nH]c(SC(C)C(=O)Nc2cc(C)on2)n1 (stereo not given),-3,5.2,-4,i,-7,0.6,4,6,-1.0,nt
Cc1cccc(Cn2c(C)c(C)c3cc(C(=O)NCCN4CCOCC4)ccc32)c1,3,2.8,-6,i,-7,8.9,-5,-31,9.9,-6
CCOc1ccc(NC(=O)C2CCN(S(=O)(=O)c3c(C)noc3C)CC2)cc1,34,-2.1,-3,i,-4,1.5,-1,6,-3.8,nt

# Following part.
structure,T cruzi inh,RanGTP-Imp inh,Calb FLC,FGF22 binding,ALR H2O2 inh,AF4-AF9 inh,rRNA inh HTS,rRNA inh HTS OD600,rRNA inh HTS RFP,Beta cell apopt
CN(C)c1ccc(-c2n(C)c3ccccc3[n+]2C)cc1,73*,4.9,102*,i,-8,3.8,23,10,6.0,nt
O=[N+]([O-])c1cccc(S(=O)(=O)Nc2ccc(-c3ccc(N4CCCC4)nn3)cc2)c1,25,2.0,3,+,2,-2.1,1,-8,-2.3,4
c1ccc(-c2nccc(-c3ccc(-n4cnc5ccccc54)cc3)n2)nc1,0,-0.5,-1,nt,0,nt,nt,nt,nt,1
COc1ccccc1NC(=S)N(Cc1ccco1)Cc1cc2cc(C)c(C)cc2[nH]c1=O,-2,1.4,4,i,2,7.2,7,7,4.7,9
CCCCC(C(=O)NC1CCCC1)N(C(=O)c1snc(C(N)=O)c1N)c1ccc(OCC)cc1 (stereo not given),18,-1.6,-2,i,-3,0.3,8,12,1.0,4
CC1CC(C)CN(C(=O)c2cc3ccccc3o2)C1 (stereo not given),5,1.5,-4,i,8,-1.2,-7,-5,2.1,8
COc1ccc(NC(=O)CC2(CC(=O)O)CCCC2)cn1,-26,2.5,5,i,-44,-3.4,12,10,2.4,-1
CC(Sc1n[nH]c(N)n1)C(=O)Nc1cccc(S(=O)(=O)N2CCOCC2)c1 (stereo not given),-9,?,-2,i,-3,-1.1,10,7,0.1,nt
C=CCOc1ccc(C2/C(=C(/O)c3ccc(OC)cc3)C(=O)C(=O)N2CCN2CCNCC2)cc1 (stereo not given),-6,?,12,i,-15,0.2,4,9,-0.1,-8
COc1cc(/C=N/NC(=O)C(C)Nc2n[nH]c(=O)[nH]c2=O)cc(OC)c1O (stereo not given),-21,4.4,-9,nt,nt,nt,nt,nt,nt,-1
O=c1nc(N2CCOCC2)ccn1Cc1ccc(Br)cc1,-15,0.5,-1,nt,1,nt,nt,nt,nt,nt
Oc1ccc(C(=S)N2CCCC2)cc1,-9,7.7,-9,i,9,1.3,14,11,1.2,nt
CCOC(=O)COn1c(=O)c(C)[n+]([O-])c2ccccc21,-12,-4.0,-2,nt,-6,nt,nt,nt,nt,-3
COC(=O)c1ccc(COC(=O)CCc2nc(-c3ccccc3)c(-c3ccccc3)o2)cc1,14,1.2,-10,nt,-12,nt,nt,nt,nt,3
COc1ccc(NC(=O)C2CCCN(S(=O)(=O)c3cccc4nonc34)C2)cc1 (stereo not given),6,-0.2,1,i,6,0.9,-1,-1,-4.8,-3
CCCCN1C(=O)/C(=C/C=C2/C=Cc3ccccc3N2CC)SC1=S,11,1.3,1,nt,-18,4.2,18,16,5.9,25
COc1ccc(N2CCN(C(=O)Cn3c(=O)[nH]c4ccsc4c3=O)CC2)cc1,5,-0.8,8,nt,26,nt,nt,nt,nt,nt
COc1ccc(CNC(=O)C(OC(=O)c2ccco2)c2ccccc2F)cc1 (stereo not given),3,-1.4,-5,i,0,-0.3,-7,-1,-0.2,-9
Cc1ccc(CNC(=O)Cc2ccc(Br)cc2)cc1,-9,-1.6,3,i,-3,-2.5,12,8,-2.9,-3
O=C(COc1ccccc1)N1CCN(C(=O)c2ccc([N+](=O)[O-])cc2)CC1,-6,-1.4,-23,i,-7,-0.6,1,3,0.2,-4
CC(=O)c1ccc(-c2ccc(Cn3c(C)nc4cc(N)c(C)nc43)cc2)cc1,19,27*,1,i,nt,-0.4,-24,-35,23,-3
Cc1ccc(C(=O)COC(=O)COc2ccccc2[N+](=O)[O-])s1,nt,nt,nt,i,-2,3.2,15,6,5.3,-5
CCOC(=O)C1CCN(S(=O)(=O)c2ccc(NC(=O)c3ccco3)cc2)CC1,-6,-0.7,-8,i,-1,-2.1,-2,-3,1.0,-1
CCCCN(CCCNC(=O)CN1C(=O)COc2ccc(S(=O)(=O)N3CCC(C)CC3)cc21)Cc1ccccc1,21,0.0,-6,i,-3,-0.1,5,5,-3.0,-2
COc1ccc(C2(c3ccc(OC(C)=O)cc3OC(C)=O)CC(c3ccccc3)NC(=S)N2)cc1 (stereo not given),-16,?,-9,i,-2,5.9,-2,-9,-4.0,1

# (list continues)
structure,T cruzi inh,RanGTP-Imp inh,Calb FLC,FGF22 binding,ALR H2O2 inh,AF4-AF9 inh,rRNA inh HTS,rRNA inh HTS OD600,rRNA inh HTS RFP,Beta cell apopt
Cc1ccc2[nH]c3c(c2c1)CN(C(=O)CN1CCCc2ccccc21)CC3,-5,?,-6,nt,-76,nt,nt,nt,nt,nt
CCOC(=O)C1CCCN(C(=O)c2[nH]c3ccc(OC)cc3c2C)C1 (stereo not given),-9,-1.1,0,i,-16,-0.7,3,-2,4.6,-10
O=C(CSc1nnc(SCc2ccccc2Cl)s1)N/N=C/c1ccc(C(=O)O)cc1,-15,-0.4,-2,i,7,-13,-24,-20,-8.6,-8
O=C(COC(=O)c1ccccn1)Nc1ccc2c(c1)OCO2,-4,5.2,1,nt,-7,-0.1,6,4,2.5,-4
c1cc2cc(-c3c(-c4ccc5c(c4)OCO5)noc3-c3ccsc3)ccc2[nH]1,48,0.4,-1,i,1,-1.4,-13*,10.0*,-0.4*,15
CC1CCCCN1Cc1ccc(-c2nnn(CC(=O)NC3CCCCC3)n2)cc1 (stereo not given),21,1.4,-3,nt,-10,nt,nt,nt,nt,3
COc1ccc(-n2nnnc2SCC(=O)NC2CC2)cc1,nt,nt,nt,i,-1,-18,5,5,-0.6,-4
COc1ccccc1/C=N/NC(=S)NCc1ccco1,-7,3.0,-1,i,-13,1.6,-11,-4,5.0,5
CCc1ccccc1N(CC(=O)O)S(C)(=O)=O,-4,0.7,3,nt,-24,nt,nt,nt,nt,0
Cc1nc(-c2ccncc2)nc(NCCNc2ncccc2C(F)(F)F)c1Cl,77*,1.0,-4,i,0,-1.1,3,14,-0.6,nt
Cc1nc(-c2ccc(Cl)cc2)sc1C1(C)CC(c2ccccc2F)=NO1 (stereo not given),-11,1.5,-8,i,nt,-1.1,1,-5,-9.2,-17
COc1ccc(/C(C)=N/NC(=O)OC(C)(C)C)cc1[N+](=O)[O-],8,0.3,4,i,-16,-0.6,-2,6,-3.4,-3
COc1ccccc1C(C)NC(=O)c1cc(S(=O)(=O)N2CCCCC2)ccc1C (stereo not given),nt,nt,nt,i,-1,1.1,-16,-24,-5.1,-8
Cc1cc(C(=O)N(C)C2CCCCC2)no1,1,12,-2,i,-2,-0.7,1,7,-2.7,-5
CC(C)Oc1cccc(C(=O)C2CCCN(Cc3cnn(C(C)C)c3)C2)c1 (stereo not given),78*,-0.4,-18,i,-4,2.2,12,6,-2.4,nt
O=C(CCc1nc2ccccc2[nH]1)Nc1ccccc1F,-13,7.7,-2,i,nt,-1.4,-1,11,1.1,0
CCOc1ccc(CCNC(=O)COC(=O)COc2ccc(Cl)cc2)cc1OCC,-5,0.6,0,i,-11,3.3,2,6,-3.2,-3
COc1ccc(NC(C)C(=O)N/N=C/c2ccccc2OCc2cccc(Br)c2)cc1 (stereo not given),4,0.0,-5,nt,1,nt,nt,nt,nt,-3
